Bioassay records from PubChem BioAssay.
CtBP-E1A blk: inhibitors of CtBP/E1A interaction | AID 651724 | hit rate 0.49% among 340,000 | activity change, % (concentration not given with the values) | AlphaScreen GST-E1A/His-CtBP binding, 1536-well; hits give low values; control for the full effect not named in the record; in the data active means activity change below about -65%; inconclusive means about -30% to -65%; inactive means above about -30%; further: on the % scale 0 is the no-effect control and ±100 the full control effect
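Homogeneous bead-based format: GST-tagged E1A captured on glutathione donor beads, His-tagged CtBP on nickel acceptor beads; compounds precede bead addition by 2 h at 37 °C.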
TRPML1 agonist: human mucolipin-1 channel agonism | TRPML1-expressing cells, Ca2+ dye fluorescence, FDSS; host cell line not named in the record; reference of the full effect not given here | activation, % (no concentration beside the values) | hit rate 0.12% among 410,000; in the data active = activation above about 50%; inconclusive = about 30% to 50%; inactive = below about 30%; further: 0% is about no effect; the text of the record puts the active cut at 80%
Target sequence (Q9GZU1 whole entry, looked up): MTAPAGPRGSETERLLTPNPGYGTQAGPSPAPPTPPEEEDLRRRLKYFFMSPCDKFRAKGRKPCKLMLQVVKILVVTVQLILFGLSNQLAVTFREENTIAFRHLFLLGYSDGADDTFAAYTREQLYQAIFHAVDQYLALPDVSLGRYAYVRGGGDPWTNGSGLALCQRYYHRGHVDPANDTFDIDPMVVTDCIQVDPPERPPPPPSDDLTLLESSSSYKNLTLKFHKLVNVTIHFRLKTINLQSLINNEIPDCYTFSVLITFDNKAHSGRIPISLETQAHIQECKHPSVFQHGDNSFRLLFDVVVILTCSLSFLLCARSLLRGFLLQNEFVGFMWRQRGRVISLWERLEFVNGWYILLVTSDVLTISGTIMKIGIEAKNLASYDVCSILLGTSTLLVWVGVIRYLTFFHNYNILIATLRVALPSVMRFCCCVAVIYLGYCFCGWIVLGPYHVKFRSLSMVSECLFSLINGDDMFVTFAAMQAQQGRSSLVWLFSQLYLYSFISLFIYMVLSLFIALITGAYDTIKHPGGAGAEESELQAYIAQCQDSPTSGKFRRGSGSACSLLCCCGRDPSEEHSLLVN
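In this qHTS format, compounds were pin-transferred onto Ca8-dye-loaded TRPML1-DL cells induced with Tet overnight, and intracellular Ca2+ fluorescence was recorded kinetically for 110 s after a 10 s baseline. A subsequent 4uM final 54-4 (EC80) addition followed by a second 110 s read served as the antagonist phase.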
Six1-Eya2 inh: Six1/Eya2 interaction inhibition; Q15475+O00167; hit rate 0.56% among 360,000; AlphaScreen GST-Six1/His-Eya2 binding, biochemical; hits give low values; control for the full effect not named in the record; activity change, % (no concentration beside the values); AID 651725; in the data active = activity change below about -65%; inconclusive = about -30% to -65%; inactive = above about -30%; further: on the % scale 0 is the no-effect control and ±100 the full control effect; compound concentration not given in the record
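Homogeneous AlphaScreen proximity assay pairing GST-Six1 with His-tagged Eya2 (added as 5X mix: 250 nM and 500 nM) in 50 mM Tris pH 8.0, 300 mM NaCl, 1 mM TCEP. Glutathione donor and nickel acceptor beads; 1 h, 37 °C, dark.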
TRPML1 blocker: inhibitors of human TRPML1 channel. TRPML1-inducible cells, Ca2+ dye fluorescence, FDSS; hits give low values; inhibition of EC80 agonist-evoked calcium signal. AID 624415. activity change, negative = inhibition, % (no concentration beside the values). hit rate 0.02% among 390,000; in the data active means activity change below about -50%; inconclusive means about -30% to -50%; inactive means above about -30%;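 further: stimulus is agonist 54-4 at its EC80 concentration; on the % scale 0 is the no-effect control and ±100 the full control effect; compound concentration not given in the record; the text of the record puts the active cut at -80%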
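Calcium fluorescence in TRPML1-DL cells induced overnight with Tet: a 110 s read after compound pin addition, then a 110 s antagonist read after challenge with 54-4 at 4 uM final (EC80).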
PINK1 expr mod: changes PINK1 expression | PINK1 immunofluorescence, high-content cytometry, 24 h | Potency, µM (top dose mostly 76.6 µM), for inactives: at the top dose activation (PINK1 increase), usual class: activators | hit rate 0.2% among 410,000; active = well fitted activation curve with a large enough effect; inconclusive = small, poorly fitted or top-dose-only effect; inactive = flat fitted curve, though single readings scatter; cell line not stated here;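 further: potency means the concentration at half of the fitted maximal effect; % of control where 0% means no effect; nearly all actives have a fitted effect of over 65% in size; a mitochondrial uncoupler was the plate control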
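Cells are seeded, rested 12 hours, then given compound at five concentrations or DMSO for 24 hours. After fixation, blocking and antibody staining, PINK1 amount and mitochondrial localization are scored; CCCP serves as control.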
D2 agonist: activates the human D2 dopamine receptor; P14416; DiscoveRx PathHunter D2 beta-arrestin, luminescence, 90 min; 100% = 57 uM dopamine signal; activation, % (test concentration not listed); hit rate 0.084% among 360,000; in the data active = activation above about 40%; inconclusive = about 15% to 40%; inactive = below about 15%; further: compound concentration not given in the record; the text of the record calls up to 30% inactive
Target sequence (P14416 whole entry, looked up): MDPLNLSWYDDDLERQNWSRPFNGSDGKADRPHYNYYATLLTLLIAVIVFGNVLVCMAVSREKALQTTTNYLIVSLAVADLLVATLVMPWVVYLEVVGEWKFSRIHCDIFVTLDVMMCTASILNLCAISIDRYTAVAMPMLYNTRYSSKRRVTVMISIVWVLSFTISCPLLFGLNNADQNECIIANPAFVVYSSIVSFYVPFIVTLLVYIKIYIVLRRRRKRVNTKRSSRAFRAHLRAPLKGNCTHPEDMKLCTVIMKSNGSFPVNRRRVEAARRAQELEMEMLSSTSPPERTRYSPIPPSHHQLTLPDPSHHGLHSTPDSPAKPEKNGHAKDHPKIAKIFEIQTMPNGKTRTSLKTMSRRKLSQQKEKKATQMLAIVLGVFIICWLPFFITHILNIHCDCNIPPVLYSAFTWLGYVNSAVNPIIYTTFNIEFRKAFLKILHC
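Agonist mode: compounds alone added to overnight-plated D2 PathHunter cells for 90 min at 37 C, with 57 uM final dopamine (EC100) defining full response. Beta-arrestin recruitment detected by chemiluminescent reagent, read after 1 h at ambient temperature.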
An asterisk follows results filed as active; ? = inconclusive; · = not tested or not shown; & = joins results of further samples; [ ] = remark or other dose.

SMILES	CtBP-E1A blk	TRPML1 agonist	Six1-Eya2 inh	TRPML1 blocker	PINK1 expr mod	D2 agonist
CCOC(=O)C1=C(CSc2nccn2C)NC(=O)NC1c1ccc(OC)cc1 (configuration not stated)	4	0.5	2	9	11%[38.3 µM]	-1.9
CCc1ccc2oc(C(=O)Nc3ccc(S(N)(=O)=O)cc3)c(C)c2c1	1	1.1	-6	-11	18%	-1.9
COC(=O)c1ccc(NC(=O)CCn2cnnn2)c(C)c1	·	4.2	·	35	-0.7%	·
O=C(NNC1=NS(=O)(=O)c2ccccc21)c1ccccc1Cl	3	0.7	25	-4	-0.4%	-0.8
CCC(C(=O)NCCc1ccccc1OC)n1nc(C)c2c(C)n(-c3ccccc3)nc2c1=O (configuration not stated)	·	-0.6	14	-4	7.9%	-2.1
Cc1ccc(S(=O)(=O)N(Cc2ccccc2)c2ccccc2C(=O)NCc2cccnc2)cc1	-3	1.2	0	-27	1.9%	3.5
O=C(CSc1nc(=O)[nH]c2c1CCCC2)NCc1ccccc1Cl	·	-0.6	·	-6	-0.2%	·
Cn1c(SCc2ccccc2F)nc2cccnc21	2	0.1	7	15	2.2%[38.3 µM]	-1.3
CCOC(=O)c1c(-c2ccc(OC)c(OC)c2)csc1NC(=O)c1ccc(C)cc1	·	0.0	·	1	0.5%	·
O=C(CSc1ccc([N+](=O)[O-])cc1)Nc1ccccc1N1CCOCC1	-14	-0.2	-16	20	-0.4%	-4.7
O=C(COC(=O)c1cccnc1)c1ccc(Cl)c(Cl)c1	4	1.4	10	-4	2.0%	-12
O=C(CCc1ccc(S(=O)(=O)NCCc2ccccc2)cc1)NCc1ccco1	-1	-0.1	-2	0	-0.5%	0.4
Cc1cccc(NC(=S)N/N=C/c2c[nH]c3ccccc23)c1	-9	1.1	-21	-5	0.0%	4.7
Cc1ccc(C(=O)NC2CCCN(c3ccc(C(F)(F)F)cn3)C2)cn1 (configuration not stated)	15	0.6	1	20	-1.1%	0.9
Cc1ccc(NC(=O)C(=O)NCC(c2cccnc2)N2CCOCC2)cc1C (configuration not stated)	·	0.0	·	-20	-0.7%	·

Single entries from the entries so far.
Reading of CCC(C(=O)NCCc1ccccc1OC)n1nc(C)c2c(C)n(-c3ccccc3)nc2c1=O (configuration not stated) under Six1-Eya2 inh: 14
Reading of CCOC(=O)c1c(-c2ccc(OC)c(OC)c2)csc1NC(=O)c1ccc(C)cc1 under TRPML1 blocker: 1
Reading of O=C(COC(=O)c1cccnc1)c1ccc(Cl)c(Cl)c1 under CtBP-E1A blk: 4
Reading of O=C(NNC1=NS(=O)(=O)c2ccccc21)c1ccccc1Cl under TRPML1 agonist: 0.7

Going on with the list.
SMILES	CtBP-E1A blk	TRPML1 agonist	Six1-Eya2 inh	TRPML1 blocker	PINK1 expr mod	D2 agonist
CCC(=O)c1ccc(OCC(=O)NCCC2=CCCCC2)c(OC)c1	·	1.4	6	8	-0.3%	-0.5
Cn1nc(-c2ccccc2)cc1NC(=O)Nc1ccccc1F	-2	-0.5	3	6	1.9%	2.7
CCOc1ccc(-c2ccc(C3=CC(=O)C[C@H](c4ccc(F)cc4)C3)cc2)cc1	-7	-0.4	12	-22	1.1%	-4.5
Cc1ccc(C)c(OCC(=O)N/N=C/c2c(C)nn(-c3ccccc3)c2Cl)c1C	6	0.1	4	-6	?	-3.0
CCCCNC(=S)NNC(=O)c1cc(C)on1	2	-0.3	0	4	?	-1.9
CC(=O)C1=C(C)NC(=O)NC1c1ccc(Cl)cc1 (configuration not stated)	2	-0.2	7	38	2.6%	-4.2
CC(=O)N1CCc2cc(C(=O)CN3CCN(c4cccc(Cl)c4)CC3)ccc21	0	0.1	-7	3	0.7%	9.7
Cn1cc([N+](=O)[O-])c(C(=O)NNC(=O)c2ccc([N+](=O)[O-])cc2)n1	·	1.6	-2	13	0.4%	-3.7
Cc1cccn2cc(CNC(=O)CC3CCCC3)nc12	0	-0.9	11	15	0.6%	0.4
Cc1ccc(-n2c(O)c(/C=N/n3cnnc3)c3ccccc3c2=O)cc1	-5&-25	-0.2&-0.6	-3&-11	36&-11	1.2%&-4.7%[38.3 µM]	1.1&-0.7
Cc1ccccc1-n1ncc2c1CC(C)(C)CC2NC(=O)CSc1ccncc1 (configuration not stated)	5	-0.6	-1	-1	1.9%	-1.0
CC(C)c1ccc(O)c(NC(=S)NC(=O)c2ccc3c(c2)OCO3)c1	-10	0.3	-19	3	4.8%	-8.9
Cc1cccc(NC(=O)CSc2n[nH]c(-c3cccnc3)n2)c1	1	1.2	2	?	1.4%	-11
COc1cc(C(=O)N(Cc2cccnc2)c2nc3cc(C)c(C)cc3s2)cc(OC)c1OC	·	-0.9	·	8	11%	·
COc1ccc2cc3c(N)nn(C(=O)c4ccc(F)cc4Cl)c3nc2c1	·	0.7	·	4	1.4%	·
CCN(CC)CCCNC(=O)c1cc(-c2ccc(OC)c(OC)c2)on1	·	-1.1	·	2	1.0%	·
Cc1nc(-c2ccccc2)sc1C(=O)/C=C/c1ccccc1	7	0.2	-2	18	-2.8%	1.9
O=S(=O)(c1ccccc1)N1CCN(c2nnc(-c3ccccc3)c3ccccc23)CC1	6	1.3	15	-11	-0.4%	0.4
COc1cc(OC)cc(-n2c(=O)c3ccccc3n(Cc3ccccc3C#N)c2=O)c1	·	1.0	·	2	0.1%	·
COc1ccc(CCN(Cc2cc3cc(C)ccc3[nH]c2=O)C(C)=O)cc1OC	5	0.2	-1	6	1.0%	-4.7
O=C(NC1CCCC1)C1CCN(c2cnccn2)CC1	2	-0.3	0	17	-0.1%	-2.4
O=C1NC(=O)C2(CCCc3ccccc32)N1 (configuration not stated)	·	0.6	8	-8	-1.1%	4.1
Cc1nn(C)c(C)c1Nc1ccc(N2C(=O)C3CC=CCC3C2=O)cc1[N+](=O)[O-] (configuration not stated)	-1	-0.4	8	10	2.8%	-0.6
CCc1ccc2occ(CC(=O)Nc3nnc(SC)s3)c2c1	·	0.4	·	6	-0.9%	·
O=C(CN(Cc1ccccc1Cl)C(=O)c1ccc(CN2CCOCC2)o1)NCc1ccccc1	6	0.0	5	27	0.2%	-2.8
CCn1nc(C(=O)OCC(=O)c2c[nH]c3ccccc23)c2ccccc2c1=O	-15	-0.1	-16	-5	6.7%	-1.8
O=C(CCN1C(=O)COc2ccccc21)N1CCCCC1	-6	-0.1	-1	3	2.8%[38.3 µM]	-1.3
COc1ccc(OC)c(-n2c(-c3ccc(C)cc3)n[nH]c2=S)c1	7	-0.1	5	-4	-0.1%	-0.6
Cc1ccc(-n2nc(CC#N)c(C#N)c2N)cc1	-15	-0.2	-7	-1	1.8%	-6.2
O=C(NCC1CCCO1)c1cc2n(n1)C(C(F)(F)F)CC(c1ccc(F)cc1)N2 (configuration not stated)	2	-0.4	2	-8	14%[38.3 µM]	-1.3
CC(=O)Nc1ccc(NC(=O)COC(=O)Cc2c[nH]c3ccccc23)cc1	0	0.0	3	-5	-0.8%	-0.7
COc1ccccc1C(CNC(=O)C1CC(=O)N(Cc2ccc(C)cc2)C1)N1CCCC1 (configuration not stated)	-2	0.0	-11	-6	-1.2%	-2.0
C#CC1(NC(=O)NC(=O)c2c(F)cccc2F)CCCCC1	·	-0.3	9	1	0.8%	-4.9
O=C(Cn1ccc([N+](=O)[O-])n1)N1CCCc2ccccc21	6	-0.3	-1	-5	-0.4%[38.3 µM]	-1.5
O=c1cc(CN2CCN(c3ccccc3)CC2)c2ccccc2o1	7	-0.7	3	·	3.5%	-2.6
CC[C@H](C)[C@@H](COC=O)NC(=O)[C@H]1O[C@@H](n2ccc(N)nc2=O)[C@H](O)[C@@H]1O	13	-0.1	5	·	1.8%	-3.2
CCOC(=O)CCNC(=O)Nc1ccc2nc(C)n(Cc3ccc(Cl)cc3)c(=O)c2c1	2	-0.1	1	-5	·	2.8
O=c1c(Cl)c(N2CCOCC2)cnn1-c1ncc(C(F)(F)F)cc1Cl	0	0.0	0	-1	-0.2%	-1.1
O=C(O)/C=C/c1cccc(NS(=O)(=O)c2ccccc2)c1	8	0.1	7	0	-0.6%	-5.3
CCCNS(=O)(=O)c1ccc(-n2cnnn2)c(OC)c1	5	0.0	5	-6	2.8%	-3.3
CCc1cc(=O)oc2c(C)c(OC(C)C(=O)NC3CC(C)(C)NC(C)(C)C3)ccc12 (configuration not stated)	-5	-0.2	1	13	-2.1%	-3.2
CC(C)c1ccc(NS(=O)(=O)c2ccc(N3C(=O)CCC3=O)cc2)cc1	-1	0.0	7	-30	-0.2%	8.4
CC(C)c1ccc(CN2CCC(n3nccc3NC(=O)C3CCCC3)CC2)cc1	-5	0.0	1	6	0.2%	-15
NC(=S)N=Nc1c(O)n(C2OC(=O)c3ccccc32)c2ccccc12 (configuration not stated)	-8	3.1	-29	38	0.9%	-1.7
O=C(C1CCCO1)N1CCN(C(=S)Nc2ccc(Cl)c(Cl)c2)CC1 (configuration not stated)	0	-0.5	-7	-8	0.2%	12
Cc1ccc(NC(=O)c2snc3ccc(Cl)cc23)cc1C	·	0.4	-5	-4	9.0%	2.8
COc1cc(C2CC(=O)c3c([nH]c(C(=O)OCC4CCCCC4)c3C)C2)cc(OC)c1OC (configuration not stated)	·	1.3	·	-12	0.1%	·
CCOc1c(Cl)cc(CNc2nnnn2C)cc1OC	4	0.0	6	-1	-0.9%	2.4
[N-]=[N+]=NC1C[C@H](n2ccc(=O)[nH]c2=O)O[C@@H]1CO (some centres not stated)	7	0.5	0	-2	0.5%	-1.5
CCc1cc(=O)oc2c3c(cc(OCC(=O)NCc4cccnc4)c12)OC(C)(C)CC3	-25	·	1	·	-0.3%	-9.7
CCOC(=O)N1CCN(CC(O)COCC2=CCC3CC2C3(C)C)CC1 (configuration not stated)	9	0.2	26	-1	2.4%	-5.5
CC(C)[C@H](NC(=O)N1CC(=O)Nc2ccccc21)C(=O)N[C@H](Cc1ccccc1)C(=O)O	3	·	3	·	0.3%	4.5
CCOc1ccc(NC(=O)/C=C\C(=O)N(c2ccc(C(C)C)cc2)C(C(=O)NCc2ccco2)c2ccc(F)cc2)cc1 (configuration not stated)	·	-0.4	·	3	0.2%	·
O=C(C1CCCN(Cc2cccc(Cl)c2)C1)N1CCCCC1 (configuration not stated)	·	1.2	-14	-3	0.0%	-0.7
Cc1ccccc1-n1nc(-c2cccnc2)cc1C(=O)N/N=C/c1ccncc1	-2	1.0	1	-1	-2.1%	-1.2
COc1ccccc1/C=N\NC(=O)c1c(C)nc2ccc(Cl)cn12	-13	0.6	-2	6	0.2%	-3.8
CCOC(=O)CNC(=O)c1nn(-c2ccc(OCC)cc2)c(=O)c2ccccc12	9	0.0	11	-7	-1.7%	-2.2
CNC(=O)C(NC(=O)CNC(=O)c1ccc(Cl)cc1)C(C)(C)C (configuration not stated)	0	1.1	-4	5	-0.2%	5.2
CCn1cc(Br)c(C(=O)Nc2ccc(C(=O)OC(C)C)cc2)n1	7	0.1	11	16	-0.8%	0.3

One compound at a time, from the list above.
Record of `O=c1cc(CN2CCN(c3ccccc3)CC2)c2ccccc2o1` : CtBP-E1A blk = 7; TRPML1 agonist = -0.7; Six1-Eya2 inh = 3; TRPML1 blocker = ·; PINK1 expr mod = 3.5%; D2 agonist = -2.6
Record of `CCN(CC)CCCNC(=O)c1cc(-c2ccc(OC)c(OC)c2)on1` : CtBP-E1A blk = ·; TRPML1 agonist = -1.1; Six1-Eya2 inh = ·; TRPML1 blocker = 2; PINK1 expr mod = 1.0%; D2 agonist = ·
